Compound activity: PubChem BioAssay, several laboratories
eIF4H inh: inhibitors of RNA binding by human eIF4H; Q15056; 0.94% of 290,000 active; inhibition, % at 35 µM; eIF4H fluorescence polarization binding assay;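 active = 50% or more with normal probe brightness, or confirmed in later tests; about a fifth of its hits are not listed in these tables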;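 also: calls also rest on retests at 20 µM and on dose response follow-up; 0% = protein and probe with vehicle and 100% = probe without protein; strong numbers were not always called active; many hits fall short of the cut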
MT1-MMP act inh: inhibitors of human MT1-MMP activation | HT1080 RFP-PRO-GFP cells, GFP/RFP ratio fluorescence, overnight; percent of plate control window, DMSO zero | GFP/RFP ratio change, % at 20 µM | 0.061% of 360,000 active | P50281 | AID 651647;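 active = GFP/RFP ratio change of at least 30% with cell ATP level not reduced by more than half and red fluorescence within 50% of control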; also: strong numbers were not always called active
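Assay system: HT1080 RFP-PRO-GFP cells. Benchmarks: DMSO vehicle wells and RFP-L50D-GFP reporter cell wells. Times: overnight cell settling, then overnight compound exposure, 37 °C, 5% CO2. Compound: 20 µM single dose, 1% DMSO. Read-out basis: GFP/RFP fluorescence ratio.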
HIV Env fusion: HIV envelope-mediated fusion inhibition; AID 651610; HeLa-JRFL Env/CEM21 cell fusion, luciferase; inhibition, % at 12.3 µM; 1.1% of 360,000 active;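 active = mean replicate inhibition score of at least 50 and every replicate individually at or above 50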;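 also: 0% = plate neutral controls and 100% = maraviroc near 300 nM; one replicate is shown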
Rce1 inhib: yeast Ras-converting enzyme inhibition | Q03530 | yeast membranes, quenched prenylated peptide cleavage fluorescence | calls only | 0.27% of 290,000 active;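 active = fall in fluorescence gain of 50% or more versus controls, with final raw signal at or below 3038400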;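 also: plate controls were neutral control wells for no effect and wells lacking membranes for full effect; tested at 10 µM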
CSC inhib: blocks cancer stem cells | cancer stem cell-like cells viability, luminescence | inhibition, % at 7.5 µM | 1.1% of 300,000 active;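 active = mean at 75% or more and at least half the replicates too; tested in HMLE shEcad cells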;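 also: 0% = median of negative and 100% = median of positive control wells; the first replicate is given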
UUG fidelity: alters start codon recognition fidelity in yeast; activity score, % at 18.7 µM; AID 602363; 0.13% of 350,000 active; S. cerevisiae UUG-firefly luciferase reporter, luminescence/redox ratio;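 active = replicate mean at a twofold rise or more, about +100% in these data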;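 also: firefly luciferase made from a UUG start codon reports start codon fidelity; reporter light over untreated wells divided by growth signal over untreated wells; some hits fall short of that in this replicate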
PABP FP inh: PABP-poly(A) binding inhibition; P11940; PABP-poly(A) RNA binding, fluorescence polarization; inhibition, % at 35 µM; 1% of 290,000 active; AID 2014;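 active = 50% or more with normal probe brightness, or confirmed in later tests; about a fifth of its hits are not listed in these tables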;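 also: calls also rest on retests at 20 µM and on dose response follow-up; controls were probe without protein and protein plus probe with vehicle; some compounds called inactive have numbers as strong as hits; many hits fall short of the cut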
Target sequence (P11940 whole entry, looked up): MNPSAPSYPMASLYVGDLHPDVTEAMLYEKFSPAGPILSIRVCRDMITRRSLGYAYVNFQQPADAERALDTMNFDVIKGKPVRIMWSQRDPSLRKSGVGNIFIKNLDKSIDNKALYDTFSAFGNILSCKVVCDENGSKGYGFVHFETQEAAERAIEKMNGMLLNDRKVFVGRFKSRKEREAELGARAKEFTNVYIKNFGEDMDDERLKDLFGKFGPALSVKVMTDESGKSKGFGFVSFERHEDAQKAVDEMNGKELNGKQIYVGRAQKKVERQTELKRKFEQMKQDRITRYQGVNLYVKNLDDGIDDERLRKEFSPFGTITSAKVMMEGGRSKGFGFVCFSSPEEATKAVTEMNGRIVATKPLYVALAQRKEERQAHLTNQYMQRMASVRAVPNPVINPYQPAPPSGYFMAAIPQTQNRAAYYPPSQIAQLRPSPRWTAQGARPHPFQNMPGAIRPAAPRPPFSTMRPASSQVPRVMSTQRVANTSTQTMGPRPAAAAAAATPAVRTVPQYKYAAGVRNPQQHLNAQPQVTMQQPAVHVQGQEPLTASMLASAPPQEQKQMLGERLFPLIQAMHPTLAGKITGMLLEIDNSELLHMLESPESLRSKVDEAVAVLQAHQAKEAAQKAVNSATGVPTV
eIF4H inh retest: recorded beside eIF4H inh, whose call it bears; inhibition, %; compound at 20 µM; confirmation average;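 mean of two retest wells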
PABP FP inh retest: second read-out of PABP FP inh, no call of its own (marks repeat the call); inhibition, %; compound at 20 µM; confirmation repeats;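 mean of two retest wells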
MT1-MMP act inh RFP: second read-out of MT1-MMP act inh, no call of its own (marks repeat the call); RFP signal change, %; measured here: RFP expression control read;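 0 = vehicle wells; hits needed this value within 50% of zero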
An asterisk follows results filed as active; i = inactive; · = not tested or not shown.

SMILES	eIF4H inh	MT1-MMP act inh	MT1-MMP act inh RFP	HIV Env fusion	Rce1 inhib	CSC inhib	UUG fidelity	PABP FP inh	others
O=C(CO/N=C/c1ccccc1OC(F)F)N1CCc2ccccc21	-13	3	6	-3	i	5	-17	-3
CCOCCn1c(CN2CCN(C(=O)c3ccco3)CC2)nc2c1c(=O)n(C)c(=O)n2C	1	-1	0	16	i	9	-12	-2
COc1cc(C(=O)NCC(C)C)cc(OC)c1OC	-2	0	3	-181	i	-11	-30	1
NC(=O)c1cc([N+](=O)[O-])ccc1NCc1ccc(C(=O)O)cc1	·	3	4	10	·	1	-1	·
COc1ccc(N2CCN(C(CNC(=O)c3cccc(Cl)c3)c3cccnc3)CC2)cc1 (centres undefined)	-4	0	-5	·	i	17	-1	-4
Cc1cc2occ(CC(=O)NC3(C)CCS(=O)(=O)C3)c2cc1C (centres undefined)	-1	0	-5	·	i	-3	0	6
CCOc1ccc(C2NC(=O)C(C#N)=C(S)N2c2cccc(C)c2)cc1OC (centres undefined)	-1	-4	3	-8	i	-3	·	-6
C=CCOc1ccc(C2OC34CCCCC3C(C#N)(C#N)C2(C#N)C(=N)O4)cc1 (centres undefined)	84*	-31	17	·	i	-2	-14	104*
O=C1CSC(c2ccccc2F)N1c1ccccc1F (centres undefined)	0	-1	-2	-4	i	0	-3	7
Cc1ccccc1CN1CCCC(C(=O)N2CCCCC2)C1 (centres undefined)	-1	1	-2	-1	i	0	-12	16
CCCCC(CC)CNC(=O)CN(C)S(=O)(=O)c1cccc2nsnc12 (centres undefined)	10	4	4	-59	i	-3	-8	8
CCOC(=O)C(NCCc1ccccc1F)(NC(C)=O)C(F)(F)F (centres undefined)	-3	0	-2	26	i	1	·	-3
CC1CCN(c2cc(N(C)CCO)c([N+](=O)[O-])c3nonc23)CC1	-8	7	3	12	i	-16	-8	0
CCn1c(SCC(=O)NC(C)(C)C)nc(O)cc1=O	-7	-5	-1	-5	i	13	-18	24
Cc1noc(C)c1COc1ccc(CC(=O)NCc2ccccc2)cc1	7	3	-12	-344	·	58	·	10
COc1cccc(Nc2n[nH]c(=S)s2)c1	-12	1	5	-71	i	4	·	-4
CCOC(=O)c1c(C)[nH]c(C(=O)OCC(=O)N(CC)c2c(N)n(Cc3ccccc3)c(=O)[nH]c2=O)c1C	·	1	2	10	·	·	-5	·
COCCCN1C(=O)C(=O)/C(=C(/O)c2ccc(S(=O)(=O)N3CCCCC3)cc2)C1c1ccc(OC)cc1 (centres undefined)	-6	1	2	4	i	-15	-8	1
O=C(CN1C(=O)c2ccccc2S1(=O)=O)N1CCN(Cc2ccc3c(c2)OCO3)CC1	5	-1	1	7	i	-5	-14	-4
CC(NCC1COc2ccccc2O1)C1COc2ccccc2O1 (centres undefined)	2	3	2	14	i	7	-24	-2

Reprinted from the part before: 4 entries, followed by the next part.
SMILES	eIF4H inh	MT1-MMP act inh	MT1-MMP act inh RFP	HIV Env fusion	Rce1 inhib	CSC inhib	UUG fidelity	PABP FP inh	others
CCOC(=O)c1c(C)[nH]c(C(=O)OCC(=O)N(CC)c2c(N)n(Cc3ccccc3)c(=O)[nH]c2=O)c1C	·	1	2	10	·	·	-5	·
COCCCN1C(=O)C(=O)/C(=C(/O)c2ccc(S(=O)(=O)N3CCCCC3)cc2)C1c1ccc(OC)cc1 (centres undefined)	-6	1	2	4	i	-15	-8	1
O=C(CN1C(=O)c2ccccc2S1(=O)=O)N1CCN(Cc2ccc3c(c2)OCO3)CC1	5	-1	1	7	i	-5	-14	-4
CC(NCC1COc2ccccc2O1)C1COc2ccccc2O1 (centres undefined)	2	3	2	14	i	7	-24	-2
CSCCC(NC(=O)c1ccc([N+](=O)[O-])cc1Cl)C(=O)OCC(=O)NCCCc1ccccc1 (centres undefined)	-4	5	7	4	i	6	-6	-3
NC(=NC1CCCCC1)NS(=O)(=O)c1ccccc1	7	1	-1	10	i	-20	0	-6
CSCCC(NC(=O)c1ccc([N+](=O)[O-])cc1Cl)C(=O)OCC(=O)NCC(F)(F)F (centres undefined)	-4	2	8	14	i	1	-4	1
CCCCNC(=O)c1ccc(-n2c(=S)[nH]c3ccccc3c2=O)cc1	-2	2	3	-7	i	10	-10	9
COc1ccc(Nc2nc(S(=O)(=O)c3ccc(C)cc3)c(Cl)s2)cc1	1	-5	-20	29	i	·	-6	11
CN(CC(=O)Nc1ccc(Cl)c(C(F)(F)F)c1)Cc1cc(=O)n2ccsc2n1	12	-4	-5	5	·	-4	-19	9
COc1ccc(Cl)cc1NC(=S)NC1CCCC1	5	2	-2	-29	i	-2	-18	6
c1ccc2c(c1)CCCN2Cc1nnnn1C1CCCC1	4	-15	5	-18	i	-10	-6	-1
N#CC(C#N)C(c1ccsc1)c1c(-c2ccccc2)[nH][nH]c1=O (centres undefined)	6	2	6	·	i	3	-17	9
COc1ccc(OC)c(NC(=O)[C@H]2CC=CC[C@H]2C(=O)O)c1	1	-2	-1	-26	i	-6	-9	-2

Gathered by group, those above with a COOH group (2)
SMILES	eIF4H inh	MT1-MMP act inh	MT1-MMP act inh RFP	HIV Env fusion	Rce1 inhib	CSC inhib	UUG fidelity	PABP FP inh	others
NC(=O)c1cc([N+](=O)[O-])ccc1NCc1ccc(C(=O)O)cc1	·	3	4	10	·	1	-1	·
COc1ccc(OC)c(NC(=O)[C@H]2CC=CC[C@H]2C(=O)O)c1	1	-2	-1	-26	i	-6	-9	-2

Later entries:
SMILES	eIF4H inh	MT1-MMP act inh	MT1-MMP act inh RFP	HIV Env fusion	Rce1 inhib	CSC inhib	UUG fidelity	PABP FP inh	others
O=[N+]([O-])c1ncccc1OCc1ccc(-c2ccccc2)cc1	1	7	0	2	i	31	-8	-1
Cc1ccc(S(=O)(=O)N2CCN(C(=O)COC(=O)c3cccnc3Cl)CC2)c(C)c1	·	-6	2	·	·	-17	-12	·
CCn1c(SCC(=O)NCc2ccccc2)nnc1-c1cccnc1	-5	-2	3	11	i	-7	-12	6
CCOc1cc2c(cc1OCC)C(c1ccc(OC)c(OC)c1)N(c1ccc(C(=O)O)cc1)C(=O)C2 (centres undefined)	-10	-2	5	7	i	-4	-4	-5
C[C@H]1COC(=O)[C@H](NC(=O)OCC2c3ccccc3-c3ccccc32)C/C=C\C[C@H](CC(=O)N(CCO)Cc2ccccc2)C(=O)N1	·	-3	-8	·	·	-15	-14	·
CC(C)(C)c1ccc(S(=O)(=O)N2CCN(C(=O)C3CCC3)CC2)cc1	6	2	-14	13	i	-7	-11	-4
O=c1c2c3c(sc2nc(NCCOCCO)n1Cc1ccco1)CCCCC3	100*	1	-4	4	i	-10	·	89*
C=CCN(c1ccc(Cl)cc1)S(=O)(=O)c1cccc(C(=O)OCC(=O)N(C)C)c1	4	1	-2	-20	i	2	·	3
CCCNC(=O)NC(=O)CSc1nnc(-c2c[nH]c3ccccc23)o1	-2	1	-1	1	i	-8	·	-8
CCOc1ccccc1CNC(=O)CCCn1ccc2cc(S(=O)(=O)N3CCCC3)ccc21	7	-1	-4	11	i	-6	9	5

No new results follow: 2 of the compounds above.
SMILES	eIF4H inh	MT1-MMP act inh	MT1-MMP act inh RFP	HIV Env fusion	Rce1 inhib	CSC inhib	UUG fidelity	PABP FP inh	others
CCn1c(SCC(=O)NCc2ccccc2)nnc1-c1cccnc1	-5	-2	3	11	i	-7	-12	6
CCOc1cc2c(cc1OCC)C(c1ccc(OC)c(OC)c1)N(c1ccc(C(=O)O)cc1)C(=O)C2 (centres undefined)	-10	-2	5	7	i	-4	-4	-5

Additional structures
SMILES	eIF4H inh	MT1-MMP act inh	MT1-MMP act inh RFP	HIV Env fusion	Rce1 inhib	CSC inhib	UUG fidelity	PABP FP inh	others
C/C(=C\C=C\c1ccccc1)C(=O)c1c(C)cc(C)[nH]c1=O	-4	0	4	-1	i	2	·	-7
COc1cc(/C=C/C(=O)OCC(=O)c2ccc(S(=O)(=O)N3CCCCC3)cc2)cc(OC)c1OC	·	-6	-4	-48	·	·	-10	·
Cc1c(C(=O)O)cc(C(C)(C)C)n1CCSCCO	-1	1	8	13	i	0	7	9
Cc1ccc(F)cc1NC(=O)C1CC(=O)N(CCc2ccccc2)C1 (centres undefined)	-1	-1	-2	17	i	11	·	10
Cc1cc(C)nc(NS(=O)(=O)c2ccc(NC(=O)Cc3ccccc3)cc2)n1	2	-2	2	-1	i	-22	·	13
Cc1ccc(NC(=S)NNC(=O)c2nn(C)cc2Cl)cc1	3	-3	-5	-26	i	-10	-12	-8
Cc1cc(Cl)ccc1C(=O)C1CCCN(C(=O)CN2CCOC2=O)C1 (centres undefined)	68	2	5	1	i	-12	-6	22	eIF4H inh retest=-18;PABP FP inh retest=4
CC(=O)Nc1cccc(NC(=O)CSc2nc(=O)n(CCN3CCOCC3)c3c2CCC3)c1	·	0	6	-5	i	-12	-11	·
O=C(CCN1C(=O)C2CCCCC2C1=O)NNC(=O)c1cccc(Cl)c1 (centres undefined)	-6	-2	4	2	i	9	·	10
NC(=O)c1cc(-c2ccccc2)nc(Oc2ccccc2)n1	-5	·	·	-71	i	-2	-4	-4
Cc1ccc(CNC(=O)CCNC(=O)c2ccc(Br)o2)cc1	-4	1	0	15	i	-4	-12	-1
Cc1ccc(-n2ncc3c(NCc4ccccc4)ncnc32)cc1	-2	1	-3	·	i	4	-17	2

This is a subset; rates above refer to the full screens.
